Compound activity (PubChem BioAssay)
KCNQ2 pot – potentiators of rat KCNQ2 potassium channel; O88943; CHO-K1 KCNQ2, FluxOR thallium flux fluorescence; stronger effect = higher value; B-score at 10 µM; 0.54% of 310,000 active;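 active = fluorescence ratio B-score at least 3 SD of library B-scores, with initial fluorescence B-score within 3 SD, cut at about 5.3 in these data; same plate scores as AID 2156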;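 note: B-score of peak minus minimum over baseline fluorescence ratio after K+ and Tl+ stimulus; positive B-score means potentiation of KCNQ2 with more thallium influx and brighter signal; only the inactives scoring about 0 or higher are listed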
Target sequence (O88943 whole entry, looked up): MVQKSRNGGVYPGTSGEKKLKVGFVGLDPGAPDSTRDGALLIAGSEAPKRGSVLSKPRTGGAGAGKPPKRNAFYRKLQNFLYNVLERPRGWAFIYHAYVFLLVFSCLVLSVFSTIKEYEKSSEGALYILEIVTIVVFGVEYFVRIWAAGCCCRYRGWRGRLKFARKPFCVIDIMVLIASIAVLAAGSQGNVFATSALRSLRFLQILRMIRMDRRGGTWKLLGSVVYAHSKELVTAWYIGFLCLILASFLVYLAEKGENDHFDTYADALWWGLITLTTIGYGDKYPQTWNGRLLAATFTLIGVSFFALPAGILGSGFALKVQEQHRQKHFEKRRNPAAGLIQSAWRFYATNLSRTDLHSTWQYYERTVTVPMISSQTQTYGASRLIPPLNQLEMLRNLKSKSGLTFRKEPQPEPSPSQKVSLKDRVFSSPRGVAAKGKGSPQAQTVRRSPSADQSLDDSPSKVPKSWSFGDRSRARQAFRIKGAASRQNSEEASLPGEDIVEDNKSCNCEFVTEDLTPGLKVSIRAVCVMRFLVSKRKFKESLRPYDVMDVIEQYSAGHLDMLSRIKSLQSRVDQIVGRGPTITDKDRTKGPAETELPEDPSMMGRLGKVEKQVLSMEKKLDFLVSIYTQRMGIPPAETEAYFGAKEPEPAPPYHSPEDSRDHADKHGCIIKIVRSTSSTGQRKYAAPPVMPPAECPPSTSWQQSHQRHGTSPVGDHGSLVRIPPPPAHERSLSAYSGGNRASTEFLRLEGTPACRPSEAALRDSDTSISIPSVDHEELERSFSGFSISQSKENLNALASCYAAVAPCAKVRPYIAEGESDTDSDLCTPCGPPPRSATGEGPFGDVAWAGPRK
KCNQ2 pot baseline – also measured in KCNQ2 pot; calls as there; B-score; compound at 10 µM; measured here: initial fluorescence intensity artifact check;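 brightness before thallium and not channel activity; 0 = typical well and far values either way flag optical interference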
An asterisk follows results filed as active.

SMILES	KCNQ2 pot	KCNQ2 pot baseline
COc1ccc(CCn2c(=N)c(C(=O)NC3CCCC3)cc3c(=O)n4ccccc4nc32)cc1	1.49	0.2
COc1ccc(NC(=O)C2Cc3cc(S(=O)(=O)N4CCCCC4)ccc3N2C(C)=O)cc1Cl (stereo unspecified)	0.83	0.11
Cc1[nH]c2ccccc2c1Cc1nnc(SCC(=O)NCc2ccco2)o1	1.43	0.43
CN(C)S(=O)(=O)c1cccc(-c2nnc(SCC(=O)NCCCCCC(=O)O)n2-c2ccc(F)cc2)c1	0.43	0.32
CCCCCCC(=O)N(O)C1CC(=O)N(c2ccc(Br)cc2)C1=O (stereo unspecified)	0.41	0.64
COCCCNC(=O)CCn1c(=O)c2ccccc2n(CC(=O)Nc2ccccc2C)c1=O	0.13	0.87
C#CCn1c(S(=O)(=O)Cc2ccc(OC)cc2)nc(-c2ccccc2)c1-c1ccccc1	4.89	0.73
CCOc1cccc(C(=O)Nc2ccc(NC(=O)c3ccccc3)c(C)c2)c1	0.59	-0.83
Cc1cc(N2CCCC2)n2nc(C)nc2n1	0.46	-1.77
Cc1cccc(C)c1NC(=O)Cn1c(=O)n(CCC(=O)NCc2ccco2)c(=O)c2sccc21	0.04	-1.83
CN(C)C(=O)[C@H]1C[C@H]1[C@@H](O)[C@H](CO)NC(=O)[C@H](Cc1ccccc1)NC(=O)OC(C)(C)C	2.08	0.07
COCCNC(=O)CN(C(=O)Cn1nnc2ccccc21)c1ccccc1C	0.85	0.28
COc1ccc2c(c1)OC13CCN(C)CC1C2C(C(=O)c1ccc(F)cc1)C(=O)N3 (stereo unspecified)	0.16	0.71
Cc1noc(C)c1CSc1ncnc2ccccc12	1.04	-2.21
Cc1cc2ccccc2c(=O)n1CC(=O)NCC(=O)N(C)C1CCCCC1	0.97	0.31
CCOCN(C(=O)Cn1c(C(C)O)nc2ccccc21)c1c(C)cccc1CC (stereo unspecified)	1.41	2.05
COCCCNC(=O)C(C)N1c2cccc3cccc(c23)S1(=O)=O (stereo unspecified)	2.09	-0.12
NC12CC3CC(CC(C3)C1)C2	0.39	0.49
O=C(O)CC(NC(=O)OCc1ccccc1)c1ccc(Br)cc1 (stereo unspecified)	0.48	-1.67
O=C(NCc1ccccn1)c1ccc(CNS(=O)(=O)c2ccc(F)cc2)cc1	0.21	-0.29
COC(=O)c1cccnc1-n1c(=O)c2cccnc2n(Cc2cccc(OC)c2)c1=O	1.26	1.34
Cc1cc(NC(=O)CCN2C(=O)C3C4CCC(C4)C3C2=O)c(C)cc1Br (stereo unspecified)	1.31	-0.73
Cc1ccc(CN2CCN(c3ncccn3)CC2)c(C)c1	0.01	-0.97
Cc1nc(N)nc(Nc2ccc(C#N)cc2)c1Br	0.6	-1.36

A different layout for part of the listing above:
KCNQ2 pot | KCNQ2 pot baseline | Molecule
0.48 | -1.67 | O=C(O)CC(NC(=O)OCc1ccccc1)c1ccc(Br)cc1 (stereo unspecified)
1.04 | -2.21 | Cc1noc(C)c1CSc1ncnc2ccccc12
1.43 | 0.43 | Cc1[nH]c2ccccc2c1Cc1nnc(SCC(=O)NCc2ccco2)o1
0.46 | -1.77 | Cc1cc(N2CCCC2)n2nc(C)nc2n1
0.41 | 0.64 | CCCCCCC(=O)N(O)C1CC(=O)N(c2ccc(Br)cc2)C1=O (stereo unspecified)
0.39 | 0.49 | NC12CC3CC(CC(C3)C1)C2

Ordered by molar mass (falling): some entries from above
SMILES	KCNQ2 pot	KCNQ2 pot baseline
Cc1cccc(C)c1NC(=O)Cn1c(=O)n(CCC(=O)NCc2ccco2)c(=O)c2sccc21	0.04	-1.83
COCCCNC(=O)CCn1c(=O)c2ccccc2n(CC(=O)Nc2ccccc2C)c1=O	0.13	0.87
CN(C)C(=O)[C@H]1C[C@H]1[C@@H](O)[C@H](CO)NC(=O)[C@H](Cc1ccccc1)NC(=O)OC(C)(C)C	2.08	0.07
O=C(NCc1ccccn1)c1ccc(CNS(=O)(=O)c2ccc(F)cc2)cc1	0.21	-0.29

Other records:
SMILES	KCNQ2 pot	KCNQ2 pot baseline
CCc1noc(C)c1C(=O)N1CCN(S(=O)(=O)c2ccc(Br)cc2Cl)CC1	0.05	0.05
COc1cccc(N2CC(=O)Nc3c(oc4nc(-c5ccccc5)cc(C)c34)C2=O)c1	0.19	-2.3
O=S(=O)(NCCS(=O)(=O)N1CCN(c2ccccc2)CC1)c1ccccc1	0.11	1.74
CN1CCOc2cc(S(=O)(=O)Nc3ccc(F)cc3)ccc21	1.74	0.26
Cc1ccc(NC(=O)c2cc([N+](=O)[O-])ccc2N2CCOCC2)cc1S(=O)(=O)N(C)C	2.09	-0.7
O=C(c1ccc(S(=O)(=O)N2CCC(c3nc4ccccc4s3)CC2)cc1)N1CCOCC1	1.21	-0.57
COCCCNC(=O)CCC(=O)Nc1ccc2nc(N3CCOCC3)cc(C)c2c1	2.31	0.9
COc1ccc(/C(=C/c2ccc(OC(F)F)c(OC)c2)C(=O)O)cc1OC	1.01	0.81
Cc1cc(Cl)c(S(=O)(=O)NC(C(=O)O)c2ccccc2)cc1OCC(N)=O (stereo unspecified)	0.51	-1.66
CCOC(=O)C1=C(COC(=O)CCOc2ccccc2C)NC(=O)NC1C (stereo unspecified)	2.79	0.74
CCn1c(N2CCN(CC(=O)c3c[nH]c4ccccc34)CC2)nc2c1c(=O)[nH]c(=O)n2C	0.58	-0.02
Cc1ccc(-c2nn(C)c(=O)c3ccccc23)cc1CNC(=O)Cn1nc(-c2ccccc2)c2ccccc2c1=O	0.03	-2.29
O=C1CC2(CCN(C(=O)C3CC(=O)N(c4ccc(F)cc4)C3)CC2)Oc2ccccc21 (stereo unspecified)	0.87	-0.59
Cc1ccsc1/C=C1/SC(N2CC(C)OC(C)C2)=NC1=O (stereo unspecified)	1.43	-0.73
CSc1ccc(C(=O)C2CCCN(C(=O)CCc3c(C)nn(C)c3C)C2)cc1 (stereo unspecified)	0.62	0.8
Cc1nn(C)c(C)c1C1Nc2ccccc2C(=O)N1O (stereo unspecified)	0.01	1.46
CN(C(=O)CSc1ncnc2scc(-c3ccccc3)c12)C1CCS(=O)(=O)C1 (stereo unspecified)	0.37	-0.03
Cc1cccc(/C(N)=N/OC(=O)COc2ccc(Cl)cc2)c1	0.03	0.47
NC(=O)c1ccc(NC(=O)COC(=O)C2CC(=O)N(Cc3ccccc3)C2)cc1 (stereo unspecified)	0.18	-0.07
CC(C)(C)NC(=O)CSc1nc(N)cc(=O)[nH]1	0.3	1.36
CCOc1ccccc1N1CC(C(=O)Nc2cc(S(C)(=O)=O)ccc2Cl)CC1=O (stereo unspecified)	1.81	2.44
O=C(CN1CCOCC1)Nc1ncccn1	2.08	-0.39
CCOC(=O)c1ccc2ncc(C(=O)OCC)c(NCCN(C)C)c2c1	2.24	1.03
COc1ccccc1-n1cnnc1SCC(=O)NCC1CCCO1 (stereo unspecified)	2.1	-0.9
CC(C)c1ccccc1NC(=O)CC1(CC(=O)O)CCCC1	1.69	-1.07
Cc1nc2ccccc2nc1OCC(=O)NCC(F)(F)F	0.06	0.05
COc1ccccc1CNC(=O)c1cc(S(=O)(=O)N2CCOCC2)cn1C	0.07	-6.96
COc1cccc(-c2cc(C(=O)Nc3ccc4c(c3)OCO4)no2)c1	0.25	0.21
CCOc1ccc(NC(=O)CN(C)C(=O)C2CCCC2)cc1OCC	0.48	0.21
CCCCc1cc(=O)oc2c(C)c(OCC(=O)NCC3CCC(C(=O)O)CC3)ccc12 (stereo unspecified)	1.64	1.77
COc1ccc(S(=O)(=O)Nc2ccc(Cl)cn2)c(C)c1C	0.75	0.62
CC(=O)C12OC1CC1C3CCC4=CC(=O)CCC4(C)C3CCC12C (stereo unspecified)	0.05	-0.79
CC(C)=NOCC(=O)Nn1c(COc2c(C)cccc2C)nc2ccccc2c1=O	2.9	-0.95
COc1ccc(S(=O)(=O)Nc2ccc(S(=O)(=O)N(C)C)cc2)cc1[N+](=O)[O-]	0.74	-0.82
CCOC(=O)c1c(NC(=O)CSc2nc3cccnc3n2C)sc(C(C)=O)c1C	1.34	-0.57
CCn1c(C(=O)O)c(CC(=O)Nc2ccccc2F)c2ccccc21	0.81	-0.35
CC(=O)c1ccc(OCC(O)Cn2nnc3ccccc32)cc1 (stereo unspecified)	0.93	-0.22
CC(C)CNS(=O)(=O)c1ccc(S(=O)(=O)N2CCN(C3CCCC3)CC2)cc1	0.34	0.89
COc1ccc(-c2noc(-c3ccc(Cl)cc3)n2)cc1	0.01	0.09
COc1cc(C(=O)Nc2cc3c4c(c2)CC(=O)N4CCC3)cc(OC)c1OC	0.49	-0.61
CCOC(=O)CCNC(=O)CNC(=O)OCc1ccccc1	0.84	-1.76
O=C(c1cc(COc2ccccc2)on1)N1CCCC(OCc2cccnc2)C1 (stereo unspecified)	0.15	2.76
CCOc1ccc(N(CC(=O)NCCc2ccccc2)C(=O)CCC(=O)Nc2cc(C)ccn2)cc1	0.75	-0.69
O=C(Cc1ncc(C(F)(F)F)cc1Cl)Nc1ccc(F)cc1	3.91	-0.32
O=C1Nc2ccccc2C12OCCCCO2	0.56	-0.02
Cc1ccc2c(c1)nnn2C1CCN(CC(=O)N2c3ccccc3CC2C)CC1 (stereo unspecified)	0.48	-0.06
COc1cc(C2OC(=O)C3C(c4ccc(OC(C)=O)c(OC)c4)OC(=O)C23)ccc1OC(C)=O (stereo unspecified)	1.57	-0.42
CC(C)NCC(O)COCCOc1ccc(Br)cc1 (stereo unspecified)	0.68	0.92
CC(=O)Nc1ccc(C(=O)NNS(=O)(=O)c2ccc(C)cc2)cc1	0.91	-0.42
c1ccc(-c2ccc(-c3csnn3)cc2)cc1	1.04	0.01
CCOc1cc(C(=O)Nc2cc3c(cc2N2CCCC2)n(C)c(=O)n3C)cc(OCC)c1OCC	0.37	-1.47
COC(=O)c1cc(-c2c[nH]c3ccccc23)n[nH]1	1.2	-0.92
O=C(O)CCc1ccc(-c2ccc(Br)cc2)n1CC(=O)O	1.18	1.5
O=C(Nc1ccccc1C(=O)Nc1ccncc1)c1cccc([N+](=O)[O-])c1	1.61	-0.22
CCC(C(=O)N1CCN(c2ccccn2)CC1)n1nc(C)n2c(cc3occc32)c1=O (stereo unspecified)	0.94	1
Cc1ccc(NC(=O)/C(=C\c2cccnc2)NC(=O)c2ccccc2)cc1	0.5	1.12
CSc1nsc(SCC(=O)Nc2cccc(C(C)=O)c2)n1	0.73	-0.12
N#C/C(=C/c1ccc(-c2cc([N+](=O)[O-])ccc2Cl)o1)C(N)=O	0.63	-0.16
O=C(CCc1nnc(CCc2ccccc2)o1)N1CCCC1c1nccs1 (stereo unspecified)	1.98	-0.6
CCC(=O)N(CCO)Cc1cc2ccc(C)c(C)c2[nH]c1=O	0.18	-0.66
Going on with the list:
SMILES	KCNQ2 pot	KCNQ2 pot baseline
N#Cc1cnc(SCC(=O)Nc2ccccc2C(F)(F)F)nc1N	0.15	1.72
O=C(COC(=O)c1cc(-c2ccc(F)cc2)nc2ccccc12)NCC1CCCO1 (stereo unspecified)	1.09	0.06
C/C(N)=C(/C#N)C(=O)COC(=O)CCSc1ccccc1	1	0.53
O=C(CCCc1ccccc1)Nc1ccnn1C1CCN(Cc2ccccn2)CC1	6.43*	0.05*
NC(=O)c1ccsc1NC(=O)CN1C(=O)C2CC=CCC2C1=O (stereo unspecified)	0.19	-1.29
O=C(NC1CCCCC1)NC1CCN(CC(=O)N2CCOCC2)CC1	0.52	1.36
Cc1[nH]n(-c2ccccc2)c(=O)c1N=Nc1ccc(F)cc1	0.68	0.56
COc1ccc(OC)c(N2CC(O)=C(c3nc4ccccc4s3)C2=N)c1	1.02	-0.8
O=C(CNS(=O)(=O)c1c(F)cc(F)cc1Br)OCC(=O)N1CCCC1=O	0.31	-0.51
Cc1noc(C)c1S(=O)(=O)N1CCN(c2ccc(Cl)cc2)CC1	2.17	0.58
O=C(CCn1c(=S)oc2ccccc21)Nc1ccccc1F	0.91	-0.56
O=C1CC(c2ccccc2)CC(O)=C1C=NCCN1CCN(C(=S)Nc2cccc(Cl)c2)CC1 (stereo unspecified)	0.59	-0.77
COc1ccccc1C(=O)COC(=O)Cn1nc(C)c([N+](=O)[O-])c1C	1.1	-0.15
Cc1ccc(C(=O)N/C(=C\c2ccccc2)C(=O)NCC2CCCO2)cc1 (stereo unspecified)	1.14	0.47
Cc1nn(S(=O)(=O)c2cccc([N+](=O)[O-])c2)c(C)c1S(=O)(=O)N1CCOCC1	0.48	0.99
O=C(OCC(=O)N1CCCc2ccccc21)c1cc(Br)ccc1O	0.45	0.97
COc1ccc(C(=O)OCc2nnc(-c3ccccc3)o2)cc1S(=O)(=O)N1CCOCC1	0.49	-0.58
Nc1nc(-c2cccnc2)nn1C(=O)CCc1ccccc1	0.03	-0.77
O=C(CSc1ncn[nH]1)NNC(=O)c1ccccc1	0.97	1.18
CCOC(=O)N1CCN(c2ccc([N+](=O)[O-])cc2)CC1	1.57	0.27
COc1ccc(Cl)cc1C(=O)N1CCC2(CC1)CC(=O)c1ccccc1O2	0.21	0.09
CC1(C)CC(=O)C=C(NCCN2CCN(C(=O)Nc3ccc(Cl)cc3)CC2)C1	0.04	-0.15
COc1cccc(SCc2noc(C(=O)NCCN(C)C)c2C(=O)NCCN(C)C)c1	0.83	0.41
Cc1csc2cc(-c3cccc([N+](=O)[O-])c3)c(-c3cccc([N+](=O)[O-])c3)c[n+]12	1.06	0.56
COc1cccc(-n2c(CCn3nc(C)c([N+](=O)[O-])c3C)n[nH]c2=S)c1	0.5	0.13

These rows are one share of the data; count on the stated rates, not on these rows.
